TRPML1 agonist: human mucolipin-1 channel agonism | TRPML1-expressing cells, Ca2+ dye fluorescence, FDSS; host cell line not named in the record; reference of the full effect not given here | activation, % (no concentration beside the values) | 410,000 tested, 0.12% active | AID 624414; in the data active = activation above about 50%; inconclusive = about 30% to 50%; inactive = below about 30%; note: 0% is about no effect; the text of the record puts the active cut at 80%
Target sequence (Q9GZU1 whole entry, looked up): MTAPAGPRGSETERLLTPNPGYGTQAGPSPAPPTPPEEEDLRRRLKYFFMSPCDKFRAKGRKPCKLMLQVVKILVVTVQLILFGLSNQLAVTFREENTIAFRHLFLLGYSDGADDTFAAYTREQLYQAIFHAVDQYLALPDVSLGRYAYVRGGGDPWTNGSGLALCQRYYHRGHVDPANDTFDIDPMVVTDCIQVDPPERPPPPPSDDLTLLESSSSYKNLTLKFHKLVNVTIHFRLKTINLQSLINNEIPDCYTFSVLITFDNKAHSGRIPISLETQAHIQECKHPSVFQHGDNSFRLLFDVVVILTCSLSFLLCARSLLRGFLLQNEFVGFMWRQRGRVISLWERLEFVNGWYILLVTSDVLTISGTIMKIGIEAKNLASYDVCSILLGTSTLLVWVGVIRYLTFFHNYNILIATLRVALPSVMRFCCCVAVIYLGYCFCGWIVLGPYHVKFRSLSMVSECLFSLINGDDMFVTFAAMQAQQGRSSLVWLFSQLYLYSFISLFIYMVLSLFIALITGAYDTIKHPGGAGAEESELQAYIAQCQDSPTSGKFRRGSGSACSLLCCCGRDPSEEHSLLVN
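Calcium fluorescence on an FDSS kinetic reader gave the read-out. Tet-induced TRPML1-DL cells were plated overnight, dye-loaded (Ca8 with quencher, 45-90 min, room temperature, dark), then read 110 s after compound addition, and again 110 s after 4uM final 54-4 (EC80).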
Menin-MLL FL inh: menin-MLL binding inhibition, fluorescein peptide | Fluorescence polarization, fluorescein-MLL peptide displacement from menin | 290,000 tested, under 10 active | FP activity change, % at 61.4 µM; inconclusive = falling polarisation curve, or a change in total fluorescence; inactive = total fluorescence flat and polarisation flat or rising; no compound was filed as active; the % refers to the polarisation; negative = inhibition;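 note: % of control where 0% means no effect; inhibitors lower the polarisation; unlabelled MLL peptide was the positive control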
PINK1 modulator: changes PINK1 expression | PINK1 immunofluorescence, high-content cytometry, 24 h | Potency, µM (doses to about 76.6 µM), without a hit: at the top dose activation (PINK1 increase), usual class: activators | 410,000 tested, 0.2% active; active = well fitted activation curve with a large enough effect; inconclusive = small, poorly fitted or top-dose-only effect; inactive = flat fitted curve, though single readings scatter; cell line not stated here;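 note: potency is the fitted concentration of half-maximal effect; % of control where 0% means no effect; nearly all actives have a fitted effect of over 65% in size; a mitochondrial uncoupler was the plate control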
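Compound titrations (5 concentrations, 24 h) on a stable cell line; DMSO and CCCP controls. Endpoint: fixed-cell PINK1 immunofluorescence with mitochondrial, cell and nuclear markers, scanned by microplate cytometer.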
TRPV1 PAM: potentiators of human vanilloid receptor 1 (TRPV1) | potentiation, % at 8.33 µM | Q8NER1 | 320,000 tested, 0.02% active | TRPV1-expressing cells, Fluo-8 calcium influx, capsaicin EC20 potentiation; host cell line not named in the record; control for the full effect not named in the record; active means potentiation above 80%; inconclusive means 30% to 80%; inactive means below 30%; note: 0% is about no effect
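Fluo-8 calcium influx in TRPV1-expressing cells, kinetic read (ex 480/em 520 nm). Compound added and read 3 min for agonist activity, followed by capsaicin at EC20 final and 2 min further read for enhancement.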
Sfp inh: Sfp phosphopantetheinyl transferase inhibition; Q9F4F7; Biochemical Sfp PPTase activity, qHTS; Potency, µM, without a hit: max response, negative = inhibition, usual class: inhibitors; 310,000 tested, 3.5% active; active = well fitted inhibition curve with a large enough effect; inconclusive = small, poorly fitted or top-dose-only effect, or another doubt; inactive = no such curve, though single readings can be large or run the other way;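 note: the enzyme is Sfp with the accession as filed and its product quenches rhodamine fluorescence; potency is the fitted concentration of half-maximal effect; 0% = enzyme reaction without inhibitor and -100% = no enzyme wells; top concentration of the series not given in the record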
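Compounds were incubated with enzyme (final 15 nM) for 15 min at room temperature before substrate addition started the reaction. Fluorescence at 525 nm excitation, 598 nm emission was recorded immediately and after 30 minutes.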
TRPML1 inh: human mucolipin-1 channel inhibition; activity change, negative = inhibition, % (no concentration beside the values); TRPML1-inducible cells, Ca2+ dye fluorescence, FDSS; stronger effect = lower value; inhibition of EC80 agonist-evoked calcium signal; 390,000 tested, 0.02% active; Q9GZU1; in the data active means activity change below about -50%; inconclusive means about -30% to -50%; inactive means above about -30%;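 note: stimulus is agonist 54-4 at its EC80 concentration; % is set by controls: 0 for no effect and ±100 for the full control effect; compound concentration not given in the record; the text of the record puts the active cut at -80%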
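TRPML1-DL cells, Tet-induced overnight (~16 h, 37 °C) at 1,500 cells/well, were loaded with Ca8 no-wash dye plus quencher for 45-90 min at room temperature. Compounds were pinned during FDSS kinetic reading; agonist 54-4 at EC80 (4 uM final) then added.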
ClpP mod: qHTS Assay for Activators of ClpP; Potency, µM (top dose mostly 57.5 µM), for the others: top-dose activity change, negative = active; 340,000 tested, 1.9% active; ATP-dependent Clp protease proteolytic subunit (Bacillus subtilis (strain 168)), P80244; purified B. subtilis ClpP, FRET peptide cleavage, 20 min; active = well fitted falling curve with a large enough effect; inconclusive = small, poorly fitted or top-dose-only effect; inactive = no such curve, though single readings can be large or run the other way; note: potency is the fitted concentration of half-maximal effect; the source files actives as falling curves though it sought activators and does not explain the sign; nearly all actives have a fitted effect of over 65% in size; many hits overshoot -100%
Target sequence (P80244 whole entry, looked up): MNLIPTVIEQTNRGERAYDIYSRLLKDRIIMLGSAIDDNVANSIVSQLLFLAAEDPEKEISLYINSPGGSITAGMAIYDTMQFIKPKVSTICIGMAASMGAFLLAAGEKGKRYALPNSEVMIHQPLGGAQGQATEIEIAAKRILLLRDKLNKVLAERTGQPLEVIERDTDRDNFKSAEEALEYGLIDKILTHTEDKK
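ClpP 10 microg/mL final, pH 8 Tris/KCl buffer with BSA, glycerol, Tween-20; compound pinned in; FRET-FV substrate; RT 20 min; Ex320/Em430; ΔFRET vs ADEP 5.8 microM, DMSO, no enzyme.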
An asterisk follows results filed as active; ? = inconclusive; . = no result given; [ ] = remark or other dose. Hits appear at their usual frequency; 4.4% or so of the library scored in one or more.

SMILES	TRPV1 PAM	PINK1 modulator	TRPML1 agonist	ClpP mod	Sfp inh	Menin-MLL FL inh	TRPML1 inh
CCCCN1C(=O)NC(c2ccc(OC)cc2)C(C(=O)OCc2ccccc2)=C1C (configuration not stated)	-12	4.9%	1.5	-6.8%	1%	-1.5	-2
Cc1csc(SCC(=O)NC(=O)Cc2ccccc2)n1	1	3.9%	-0.4	-0.5%	-4%	0.2	25
Cc1ccc(NC(=O)CSCC(=O)OC(C)C(=O)Nc2ccc(S(N)(=O)=O)cc2)c(C)c1 (configuration not stated)	4	-2.8%	2.5	.	.	.	-2
CC[C@]12C(=O)N(C)C[C@H]([C@@H]3C(=O)N(C)C(=O)[C@@H]31)N2C(=O)c1ccc(C(F)(F)F)cc1	.	0.3%	-0.4	3.6%	.	.	2
O=C(c1ccc2c3c(cccc13)CC2)N1CCOCC1	-12	0.3%	-0.7	-1.9%	-72%	0.1	20
CC(C)=CC(=O)Nc1ccc(Cl)cc1	9	3.7%	0.1	-1.0%	5%	-2.7	-8
Cc1ccc(CS(=O)(=O)CCC(=O)NCCC(C)C)cc1	-8	12%[38.3 µM]	-0.3	0.2%	15%	3.0	15
S=C(Nc1ccc(Cl)c(Cl)c1)N1CCCC1	-24	5.2%	-1.1	0.9%	7%	3.7	-7
CC1CCN(CCCCOc2cccc(Br)c2)CC1	15	-1.7%	0.4	1.9%	-43%	0.1	16
COc1cc([C@@H]2OC[C@@H]3[C@H]2CO[C@@H]3c2ccc3c(c2)OCO3)ccc1O	.	-0.4%	-0.3	-0.8%	.	.	-16
CC1CCCN(c2nc3c(c(=O)[nH]c(=O)n3C)n2CCSc2nc3ccccc3o2)C1 (configuration not stated)	?	0.3%	-0.4	2.1%	-8%	-3.2	-9
Cc1cccc(C)c1NC(=O)c1ccc(-c2cc(F)ccc2F)o1	.	2.3%	1.5	-9.0%	.	.	5
O=C(NC1CC(=O)N(c2ccc(Cl)cc2)C1)c1ccc2c(c1)OCO2 (configuration not stated)	.	1.0%	-0.3	-0.6%	.	.	-5
CC(C)[C@H](NC(=O)c1ccc(Cl)cc1)C(=O)Nc1cccc(S(=O)(=O)N2CCOCC2)c1	.	7.7%	-1.4	1.4%	.	.	-1
COC(=O)Cn1cnc2c(nnn2-c2ccc(C)cc2)c1=O	-21	1.7%[38.3 µM]	-0.2	-0.7%	8%	3.0	0
CC(C)(/C=N/O)N(O)C=C1C=CC(=O)C=C1	2	0.4%	.	0.1%	-5%	-0.6	.
COc1ccc(OCc2cc(C(=O)N(C)Cc3cc(C4CC4)n[nH]3)no2)c(Cl)c1	1	1.6%	2.1	-0.2%	-7%	2.7	-9
CN1CCC(OC2c3ccccc3CCc3ccccc32)CC1	.	1.1%	-0.1	-0.9%	.	.	-12
COc1cc(/C=N/O)cc(Cl)c1OC	-1	1.1%	1.5	-2.1%	6%	6.4	35
COc1ccccc1N=NNc1ccccc1OC	.	2.2%	-0.7	-0.7%	.	.	-13
CC1(C(=O)NCc2ccccc2)CCC(=O)N1C1CCN(Cc2ccccc2)CC1 (configuration not stated)	.	0.3%	-0.2	-0.7%	.	.	.
CCOc1ccc(OCC)c(Nc2nc3ccc(Cl)cc3n3cnnc23)c1	.	2.0%	-0.5	3.1%	.	.	-11
CN1CCN(S(=O)(=O)c2ccc(NS(=O)(=O)c3ccccc3)cc2)CC1	8	-0.1%	-0.1	-1.5%	-4%	.	1
N#C/C(=C\c1ccc(-c2ccc(F)cc2)o1)C(=O)Nc1nc(-c2cccs2)cs1	-3	18%	1.6	1.6%	-8%	4.1	-8
O=C(CSc1nc2ccccc2c(=O)n1Cc1ccco1)NCc1ccccc1	.	21%[38.3 µM]	0.6	-1.4%	.	.	23
CC(=O)N1CCC2(CC1)C(C#N)=C(N)Oc1n[nH]c(C(F)(F)F)c12	-28	-1.7%	0.2	1.5%	9%	-0.3	-4
CCN(CC)c1ncnnc1-c1ccccc1	-4	0.2%	1.9	0.5%	25%	-1.0	1
CC1CN(S(=O)(=O)c2ccccc2)C(C)CN1S(=O)(=O)c1ccccc1 (configuration not stated)	2	-0.1%	0.9	-2.2%	13%	-3.3	-3
NC(=O)c1ccc2nc(-c3ccccc3)c(-c3ccccc3)nc2c1	24	2.2%	3.6	4.0%	5%	6.9	30
Cc1ccc(Cl)c(NC(=O)COC(=O)c2nn(C)c(=O)c3ccccc23)c1Cl	13	-0.3%	-1.4	-1.8%	.	.	7
Cc1cc(C)c(S(=O)(=O)Nc2nccs2)c(C)c1	-23	-1.8%	0.3	-0.1%	18%	-2.7	-1
O=C(N/C(=C/c1ccc(F)cc1)C(=O)N1CCCCC1)c1ccco1	-10	0.4%	0.4	0.1%	14%	.	-4
COC(=O)[C@H]1CN(C(=O)c2ccccc2)C(=O)N1	-5	1.2%	-0.2	-0.2%	8%	-4.8	-4
CCCCn1c(N)c(N(CC)C(=O)/C=C/c2ccco2)c(=O)[nH]c1=O	-25	0.2%	0.3	-3.1%	-14%	-1.1	-8
Cc1ccc2cc(/C=N/NC(=O)[C@H]3C[C@@H]3c3ccccc3)c(Cl)nc2c1	9	17%	-1.4	63%	16%	-0.5	-21
COc1ccc(N2C3=C(C(=O)CC(C)(C)C3)C(c3ccccc3OC)C3=C2CC(C)(C)CC3=O)cc1	0	-0.5%	3.4	.	-9%	1.6	-11
CC(=O)Oc1ccc(C(=O)[C@H]2[C@H]3C(=O)N(c4cccc5ccccc45)C(=O)[C@H]3[C@@H]3C=CC=NN32)cc1	-2	1.9%	-0.4	1.1%	?	.	-17
Cc1c(Cl)cccc1NC(=O)COC(=O)C12CC3CC(CC(O)(C3)C1)C2	-3	-1.3%	0.3	-1.9%	.	.	-14
CC(=C1C2C=CC1C1C(=O)NC(=O)C21)c1ccccc1 (configuration not stated)	-9	-0.1%[38.3 µM]	-0.4	-1.1%	13%	0.0	-6
Cc1cccc(-c2nc3c4ccccc4nc(N4CCN(c5ccc(F)cc5)CC4)n3n2)c1	.	0.4%	-0.3	-3.3%	.	.	-18
O=C(CN1C(=O)c2cccc([N+](=O)[O-])c2C1=O)N1CCN(S(=O)(=O)c2ccccc2)CC1	5	-0.6%	-0.8	0.6%	.	.	-4
CC(C)n1c(=O)c2ccccc2n1Cc1cn(CCc2c[nH]c3ccccc23)nn1	.	0.4%	-0.3	-3.8%	.	.	.
CCCCn1c(N)c(N(CC(C)C)C(=O)CSC(C)C(=O)Nc2cc(C)on2)c(=O)[nH]c1=O (configuration not stated)	3	2.9%	1.0	-10%	.	.	-11
CC(C)CN(C(=O)CSc1nnc(-c2ccco2)o1)c1c(N)n(Cc2ccccc2)c(=O)[nH]c1=O	11	1.4%	0.1	-0.8%	79µM*	?	-1
CC1(C)CC(NS(=O)(=O)c2ccc(Cl)cc2)CC(C)(C)N1	?	-0.4%	0.4	-0.7%	7%	-2.3	34
Nc1nonc1NC(=O)CSc1nc2ccccc2s1	13	1.9%	0.2	-2.6%	10%	2.5	4
COc1ccccc1N1CCN(S(=O)(=O)c2c(C)sc3ncn(CC(=O)Nc4ccc(C(F)(F)F)cc4)c(=O)c23)CC1	.	1.7%	-0.7	-0.1%	.	.	15
COC(=O)c1ccc(C)c(NC(=O)CCc2ccc(OC)c(OC)c2)c1	1	-0.3%	0.0	-5.3%	7%	2.5	-4
CCOC(=O)c1sc(NC(=O)CN2CCN(c3ccccc3)CC2)nc1C	3	0.7%	0.7	-1.0%	-3%	-0.2	2
COc1ccccc1C(=O)N/N=C(\C)c1ccc(NC(=O)Cc2ccccc2)cc1	-2	7.1%	0.7	3.9%	21%	.	-17
COc1ccc(Br)cc1C(=O)NC(=S)Nc1ccc(Cl)c(C(=O)O)c1	5	-2.9%	1.6	.	45µM*	-1.6	21
COc1ccc(N2CCN(CCCNC(=O)c3ccc4nc(CCc5ccccc5)oc4c3)CC2)cc1	.	1.4%	1.8	36%	.	.	-10
O=C(Nc1ccc(N2CCOCC2)cc1)c1ccc2c(c1)OCO2	-21	-0.1%	-0.7	.	1%	-2.2	30
COc1ccccc1-n1cc(C(=O)c2cc(Cl)ccc2O)cc(C#N)c1=O	-16	0.4%	2.0	.	-3%	?	-5
CNc1ccccc1C(C)(C)c1cc(-c2cccc(Br)c2)no1	-6	?	1.9	.	-5%	12	-1
Cc1cccc(N2CCN(C(=O)CN3C(=O)COc4ccc(S(=O)(=O)N5CCCC5)cc43)CC2)c1C	.	-0.3%	1.5	-7.5%	.	.	10
CN(C)C(=O)N=NC(=O)N(C)C	0	0.8%	0.7	-0.3%	.	.	36
COc1ccccc1C(=O)NCC(=O)OCC(=O)N1CC(C)OC(C)C1 (configuration not stated)	-5	-0.6%	1.8	0.3%	.	.	-8
CC(=O)c1ccccc1C(=O)NCc1cccnc1	1	1.4%	0.4	0.7%	10%	3.2	-16
COc1cccc(N2CCN(C(=S)NCCc3ccccc3)CC2)c1	11	3.5%	1.4	1.5%	12%	0.7	-5

(cont.)
SMILES	TRPV1 PAM	PINK1 modulator	TRPML1 agonist	ClpP mod	Sfp inh	Menin-MLL FL inh	TRPML1 inh
Cc1ccc2c(c1)N(C(=O)N1CCC(C(=O)NCc3ccccc3F)CC1)CC(C)O2 (configuration not stated)	.	0.4%	-0.2	1.4%	.	.	-3
CCCC(=O)Nc1cccc(-c2nc3ccccc3c(=O)o2)c1	5	7.6%	-0.5	.	8%	0.0	-2
CCc1ccccc1NC(=O)C1COc2ccccc2C1 (configuration not stated)	.	-0.8%	-0.6	1.8%	.	.	30
CN1OC[C@@H]2CN(C(=S)Nc3ccc(C#N)cc3)[C@H](c3ccc(N4CCCCC4)cc3)C[C@@H]21	.	-0.1%	-0.7	-0.7%	.	.	.
N#C/C(=C\c1ccc(OCc2ccc(Br)cc2)cc1)C(=O)Nc1cccc(C(=O)O)c1	2	6.6%	-1.7	-0.2%	-3%	4.5	46
Cc1ccc(S(=O)(=O)N2CCN(C(=O)CSc3nnc(C)c(=O)[nH]3)CC2)cc1	-4	-0.3%	-0.5	0.4%	-11%	1.0	-4
NC(=O)CC(NC(=O)Cc1ccc(Br)cc1)c1ccc(NCCc2ccc(F)cc2)c([N+](=O)[O-])c1 (configuration not stated)	18	0.7%	-0.4	1.2%	-20%	4.0	-8

Bioassay records deposited in PubChem BioAssay by National Center for Advancing Translational Sciences (NCATS).
